# Source: PubChem (National Center for Advancing Translational Sciences (NCATS))
# VACV mCherry inh: inhibitors of vaccinia virus infection (mCherry reporter signal). Vaccinia virus mCherry reporter infection, fluorescence; about a quarter of the inactives have no number. AID 720579. 310,000 compounds, 0.63% hits. Potency, µM (highest dose often 36.5 µM), without a hit: top-dose activity change, negative = inhibition, hits mostly inhibitors; active = well fitted inhibition curve with a large enough effect; inconclusive = small, poorly fitted or top-dose-only effect; inactive = no such curve, though single readings can be large or run the other way; tested in A549 cells; note: nearly all actives have a fitted effect of over 35% in size; inactives centre near -10
# VACV Venus inh: inhibitors of vaccinia virus (Venus reporter); Vaccinia virus Venus reporter expression, fluorescence; Potency, µM (series often up to 36.5 µM), for the others: at the top dose activity change, negative = inhibition, actives largely listed as inhibitors; 330,000 compounds, 0.46% hits; active means well fitted inhibition curve with a large enough effect; inconclusive means small, poorly fitted or top-dose-only effect; inactive means no such curve, though single readings can be large or run the other way; tested in A549 cells; note: nearly all actives have a fitted effect of over 30% in size; inactives centre near -10
# The depositor's hits bear a star; i = inactive; ? = inconclusive; · = no result given; & = joins results of further samples; [ ] = remark or other dose. % is set by controls: 0 for no effect and ±100 for the full control effect; potency is the fitted concentration of half-maximal effect.
(1) Cc1[nH]nc2c1C(c1cccs1)C(C#N)=C(N)O2 (stereo unspecified)
(2) Cc1ccc(NC(=O)C2CCCN(c3ncnc4onc(C)c34)C2)c(Cl)c1 (stereo unspecified)
(3) CO[C@H]1C[C@H](O[C@@H]2/C(C)=C/C[C@@H]3C[C@@H](C[C@]4(CC[C@H](C)[C@@H](C5CCCCC5)O4)O3)OC(=O)[C@@H]3C=C(C)/C(=N/O)[C@H]4OC/C(=C\C=C\[C@@H]2C)[C@]43O)O[C@@H](C)[C@@H]1O
(4) CC(NC(=O)c1ccc2ccccc2n1)c1ccc(Br)cc1 (stereo unspecified)
(5) CSc1cc(C)n(-c2ccccc2C)c(=S)c1C(C)=O
(6) CC(C)SC1=NC(C)(C)C=C(/C=C/c2ccc(Cl)cc2Cl)N1
(7) O=C(CN1C(=O)C2C3C=CC(C3)C2C1=O)NCCN1CCCc2ccccc21 (stereo unspecified)
(8) C/C=C(\C)C(=O)NCCN1C2=NC[C@H](C)N2C[C@@H]1Cc1ccc(OC)cc1

Assay by compound	1	2	3	4	5	6	7	8
VACV mCherry inh	-8%	?	-7%	-1%	·	·	-20%	i
VACV Venus inh	-5%	?	?	-1%	-4%	?	-11%	-2%

# Down the list, from the results shown.
# VACV Venus inh, entries 2–6 → ?, ?, -1%, -4%, ?

# Remaining list, next part
(9) CCCCCC1C/C(=N\O)C=C(C)C1C(=O)OC (stereo unspecified)
(10) CC(=O)Nc1ccc(S(=O)(=O)NC(C)c2ccccc2)cc1 (stereo unspecified)
(11) Cc1nc2c(c(C)nn2-c2ccccc2)c(C)c1CCC(=O)NCc1ccccc1
(12) COc1cc(OC)c(NC(=O)NCc2ccc3c(c2)CCN3C(C)=O)cc1Cl
(13) CC1CCCC(NC(=O)CCn2c(=S)oc3ccccc32)C1C (stereo unspecified)
(14) COC(=O)[C@]12CCCCC=C1N(Cc1ccccc1)C(=O)[C@H](CC(=O)NCCCCc1ccccc1)C2
(15) Cc1ccc2c(c1)C(=O)C(=O)N2Cc1ccc(Br)cc1
(16) Cc1nc2ncccn2c1-c1csc(Nc2ccc(N(C)C)cc2)n1

Assay by compound	9	10	11	12	13	14	15	16
VACV mCherry inh	i	-3%	-2%	-2%[7.34 µM]	i	-11%	-10%	?
VACV Venus inh	-25%	-24%	-8%	-5%[7.34 µM]	-12%	-6%	?	?

(17) CC(C)(C)c1cc(Cl)ccc1OCCn1ccnc1
(18) CC(C)C(NC(=O)C(Cc1ccccc1)NC(=O)OCc1ccccc1)C(=O)O (stereo unspecified)
(19) Cc1cc(C)cc(OCC(=O)NCCc2nc3ccccc3[nH]2)c1
(20) CCc1nc2ccc(C(=O)NCCCN3CCCC3=O)cn2c1N(C=O)CC
(21) CC(=O)c1sc(N/N=C\c2cccc(Br)c2)nc1C
(22) CCCC(=O)Nc1ccc(NC(=O)c2ccccc2OC)cn1
(23) O=C(Nc1ccc2c(c1)OCCO2)c1cnccn1
(24) CC(C)(C)NC(=O)NC(=O)CN1CCN(c2cccc(Cl)c2)CC1

Assay by compound	17	18	19	20	21	22	23	24
VACV mCherry inh	i	-6%	-16%&-2%	54%[activator]	?	-15%	i	-18%
VACV Venus inh	-16%	-18%	19%&-9%	9%	?	-9%	-9%	1%

(25) CCCC(C)NC(=O)COC(=O)c1cc(Br)c(Br)s1 (stereo unspecified)
(26) CC(=O)N1c2ccc(S(=O)(=O)N3CCC(C(=O)Nc4cccc(C)c4C)CC3)cc2CC1C (stereo unspecified)
(27) CN(C)c1ccc(/C=C2\Oc3ccc(C#Cc4cccc(N)c4)cc3C2=O)cc1
(28) CCOc1ccc2nc(N3CCCN(CCCn4cccn4)CC3)nc(C)c2c1
(29) O=C(c1cnn(-c2nccc(-c3ccccc3F)n2)c1C1CC1)N1CCN(CCO)CC1
(30) COc1cc2nc(C(C)(C)C)oc(=O)c2cc1OC
(31) COc1ccc(C(=O)NCCc2nc3ccccc3[nH]2)cc1
(32) Cc1ccc(CN2CC(C(=O)N(CC(C)C)c3c(N)n(Cc4ccccc4)c(=O)[nH]c3=O)CC2=O)cc1 (stereo unspecified)

Assay by compound	25	26	27	28	29	30	31	32
VACV mCherry inh	-4%	0%	?	i	-9%	i	1%	i
VACV Venus inh	-11%	-15%	11%	-20%	-11%	-17%	2%	-14%

(33) CCCC(=O)Nc1nc(-c2ccccc2)c(CC)s1
(34) COc1c(C)cc(C(O)c2ncc(-c3ccccc3C(F)(F)F)[nH]2)cc1C (stereo unspecified)
(35) CC1=C(C(=O)OC(C)(C)C)C(c2ccc(Br)cc2)NC(=O)N1CCCC(=O)O (stereo unspecified)
(36) CCCSCCCNC(=O)CN1C(=O)COc2ccc(S(=O)(=O)N3CCC(C)CC3)cc21
(37) CCCCCC(=O)N/N=C/c1ccccc1[N+](=O)[O-]
(38) CSc1cccc(NC(=S)N2CCCN(Cc3ccccc3F)C2)c1
(39) CNc1cc(Cl)nc(SC)n1
(40) CN(C)CCN(C(=O)c1ccc(C(=O)c2ccccc2)cc1)c1nc2cc3c(cc2s1)OCO3

Assay by compound	33	34	35	36	37	38	39	40
VACV mCherry inh	-8%	5%	-3%	-15%	?	-17%	i	i
VACV Venus inh	-1%	-7%	3%	-6%	-7%	-18%	-17%	-8%

(41) CC(=O)Nc1ccc(NC(=O)CC2CCCC2)cc1
(42) O=C(CSc1nncn1-c1ccccn1)Nc1ccccc1Cl
(43) CCCc1cc(=O)[nH]c(SCC(=O)NC(=O)NC2CCCC2)n1
(44) CC1(NC(=S)NCCCCCCNC(=S)NC2(C)CCS(=O)(=O)C2)CCS(=O)(=O)C1 (stereo unspecified)
(45) Cc1ccc(OCC(=O)Nc2ccc(-c3nc4ncccc4o3)cc2)c(C)c1
(46) Cc1ccc(-c2cc3c(N=O)c4ccccc4c-3n[nH]2)cc1
(47) Cc1cc(=O)c2cc(NC(=O)c3ccccc3Cl)ccc2[nH]1
(48) CS(=O)(=O)N1CCN(c2ccc(C(=O)NC34CC5CC(CC(C5)C3)C4)cc2[N+](=O)[O-])CC1

Assay by compound	41	42	43	44	45	46	47	48
VACV mCherry inh	9%	-9%	-25%	i	-21%	-7%	-3%	-8%
VACV Venus inh	9%	-10%	-14%	-9%	-17%	9%	-17%	-5%

(49) CCOc1ccc(CCNC(=O)c2ccc(C)c(S(=O)(=O)N3CCOCC3)c2)cc1OCC
(50) CCOCC(=O)N1CCCC(C(=O)OCC)C1 (stereo unspecified)
(51) Cc1cccc(CN2CCCC(C(=O)Nc3ccc(-c4cscn4)cc3)C2)c1 (stereo unspecified)
(52) CCOc1cc(NC(=S)NCCCN2CCOCC2)c(OCC)cc1NC(=O)c1cccc(C)c1
(53) COc1ccccc1NC(=O)CSc1nnc(-c2ccoc2C)n1CCc1ccccc1
(54) CCOCCn1c(SCc2ccc(F)cc2)nc2c1c(=O)[nH]c(=O)n2C
(55) CC(=O)c1sc(Nc2ccc(C)cc2)nc1C
(56) NC(c1csc(Nc2nccc(C(F)(F)F)n2)n1)C1CCCCC1 (stereo unspecified)

Assay by compound	49	50	51	52	53	54	55	56
VACV mCherry inh	-4%	·	-30%	i	-21%	-6%	-7%	-27%
VACV Venus inh	-21%	-29%	?	-2%	-20%	-7%	2%	?

# Later entries:
# Results follow in this order: VACV mCherry inh | VACV Venus inh
57: COc1ccc(-c2ccc(C(=S)N3CCN(C(C)=O)CC3)o2)cc1
 : i | -11%
58: CN(C)c1ccc(/C=C/c2ccnc3ccc4ccccc4c23)cc1
 : 165%[activator] | 210%[activator]
59: CCOC(=O)c1ccc(OCc2c(C)noc2C)cc1
 : -16% | -9%
60: O=C(NCc1cccs1)c1ccc2c(c1)sc1nc(-c3ccc(F)cc3)cn12
 : -11% | -9%
61: COC(=O)c1c(C)oc(C)c1S(=O)(=O)NC(c1ccccc1)c1ccccc1
 : -13% | -7%
62: O=C1Nc2ccccc2C(=O)N2[C@H](c3ccccc3)[C@@H]3C(=O)N(Cc4ccccc4)C(=O)[C@@H]3[C@H]12
 : i | -10%
63: Cc1ccccc1Nc1nc(N)nc(CN(C)c2ccccc2)n1
 : -14% | -16%
64: O=C(NCCc1cccc(Cl)c1)c1ccc(Cl)c([N+](=O)[O-])c1
 : -23% | -11%
65: O=C(O)CCSCCC(=O)O
 : -1% | 3%
66: COc1ccc(S(=O)(=O)N2CCOCC2)cc1NC(=O)CCNC(=O)c1ccc(Cl)cc1
 : 15% | 8%
67: CCOC(=O)CNc1ncc([N+](=O)[O-])cc1C#N
 : i | -8%
68: O=C(NCc1ccc(F)cc1)C1CCN(S(=O)(=O)N2CCOCC2)CC1
 : i | -1%
69: O=C(CSc1nc(-c2ccccc2)cc(C(F)(F)F)n1)NCCN1CCOCC1
 : -11% | -4%
70: CCOC(=O)N1CCN(C(=O)CSc2nnc(-c3cccc(OC)c3)o2)CC1
 : ? | ?
71: CC1CCCCC1NC(=O)C1CC(=O)N(Cc2ccccc2)C1 (stereo unspecified)
 : -15% | 10%

# 2 records drawn at random from the list so far, as already listed:
# Results follow in this order: VACV mCherry inh | VACV Venus inh
13: CC1CCCC(NC(=O)CCn2c(=S)oc3ccccc32)C1C (stereo unspecified)
 : i | -12%
59: CCOC(=O)c1ccc(OCc2c(C)noc2C)cc1
 : -16% | -9%

# Other compounds follow.
# Results follow in this order: VACV mCherry inh | VACV Venus inh
72: CCO[C@H]1OC(C(=O)N2CCN(Cc3ccc4c(c3)OCO4)CC2)=C[C@@H](c2cn(C(C)=O)c3ccccc23)[C@@H]1CCCO
 : i | ?
73: Cc1csc(SCc2nnc(-c3ccccc3Br)o2)n1
 : 2% | -4%
74: Oc1nc(Nc2ccc(Cl)cc2Cl)sc1/C=C1\C=Nc2ccccc21
 : 12% | 25%
75: O=C(CN1CCNCC1)Nc1ccccc1Cl
 : -23% | -16%
76: COc1cc(/C=C2/SC(=S)N(C)C2=O)ccc1OC(=O)c1ccco1
 : i | 16%
77: Cc1ccc(-c2nc(CSCC(=O)NC3CCN(Cc4ccccc4)CC3)c(C)o2)cc1
 : i[7.34 µM] | 0%[7.34 µM]
78: C[C@H](CO)N1C[C@H](C)[C@@H](CN(C)S(=O)(=O)c2ccccc2C#N)OCc2cnnn2CCCC1=O
 : -14% | -13%
79: O=C(CCC(=O)N1CCOc2ccc(Cl)cc21)NCCCN1CCOCC1
 : -10% | -2%
80: O=C(Nc1cccc(F)c1)c1ccc2oc(=O)n(Cc3ccccc3)c2c1
 : -17% | -12%
81: Cc1ccc(SC2=C(Sc3ccc(C)cc3)C(=O)c3ccccc3C2=O)cc1
 : -6% | 6%
82: C[C@@H]1CN([C@H](C)CO)C(=O)c2cc(Br)cnc2O[C@@H]1CN(C)C(=O)Cc1ccccc1
 : i | -7%
83: O=C(CN(c1ccccc1)S(=O)(=O)c1ccccc1[N+](=O)[O-])NN=C1CCCCCCC1
 : i | -7%
84: Cn1c(SCc2ccc(C#N)cc2Cl)nc2ccccc21
 : -2% | -19%
85: O=C1c2ccccc2-c2onc3c(NCCO)cc(NC4CCCCC4)c1c23
 : 173%[activator] | 24%
86: CCCN1C(=O)c2ccc(C(=O)Nc3ccc4c(c3)OCO4)cc2C1=O
 : i | -9%
87: C#C[C@]1(OC(C)=O)CCC2C3CCC4=CC(=O)CC[C@@H]4C3CC[C@@]21C (stereo partly specified)
 : -1% | -21%
88: O=C(COC(=O)c1cccc(Cl)c1)Nc1cc(S(=O)(=O)N2CCOCC2)ccc1N1CCOCC1
 : i | -20%

# Complete entries from above. Order of screens: VACV mCherry inh, VACV Venus inh
# Entry for CCO[C@H]1OC(C(=O)N2CCN(Cc3ccc4c(c3)OCO4)CC2)=C[C@@H](c2cn(C(C)=O)c3ccccc23)[C@@H]1CCCO : i, ?
# Entry for O=C(CN1CCNCC1)Nc1ccccc1Cl : -23%, -16%
# Entry for O=C(Nc1cccc(F)c1)c1ccc2oc(=O)n(Cc3ccccc3)c2c1 : -17%, -12%
# Entry for C[C@@H]1CN([C@H](C)CO)C(=O)c2cc(Br)cnc2O[C@@H]1CN(C)C(=O)Cc1ccccc1 : i, -7%

# Ordered by molar mass (lowest first): part of the list above.
# Results follow in this order: VACV mCherry inh | VACV Venus inh
76: COc1cc(/C=C2/SC(=S)N(C)C2=O)ccc1OC(=O)c1ccco1
 : i | 16%
85: O=C1c2ccccc2-c2onc3c(NCCO)cc(NC4CCCCC4)c1c23
 : 173%[activator] | 24%
74: Oc1nc(Nc2ccc(Cl)cc2Cl)sc1/C=C1\C=Nc2ccccc21
 : 12% | 25%
78: C[C@H](CO)N1C[C@H](C)[C@@H](CN(C)S(=O)(=O)c2ccccc2C#N)OCc2cnnn2CCCC1=O
 : -14% | -13%
88: O=C(COC(=O)c1cccc(Cl)c1)Nc1cc(S(=O)(=O)N2CCOCC2)ccc1N1CCOCC1
 : i | -20%
72: CCO[C@H]1OC(C(=O)N2CCN(Cc3ccc4c(c3)OCO4)CC2)=C[C@@H](c2cn(C(C)=O)c3ccccc23)[C@@H]1CCCO
 : i | ?

# This is a random part of the collection; about 0.82% have a hit in one of these screens.
